Assay outcomes (PubChem)
Ran FRET: inhibitors of Ran–importin-beta complex formation, primary screen, biochemical, CFP-Ran/YFP-importin-beta FRET, RCC1, cell-free (AID 434961) | CFP-Ran/YFP-importin-beta FRET, cell-free; hits give high values | inhibition, % | actives 0.2% (n = 7,700);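 active = more than half of the replicate wells above 15% inhibition; inconclusive = exactly half above it; inactive = fewer than half above it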;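 note: 0% = DMSO wells and 100% inhibition = RanGDP control wells on each plate; stock of unstated strength diluted about 400-fold; mean of two wells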
An asterisk follows results filed as active; ? = inconclusive. Some of the compounds tested; the hit share may differ from the screen's.

> C[C@H](CO)N1C[C@H](C)[C@H](CN(C)S(=O)(=O)c2cccs2)Oc2ncc(-c3ccc(F)cc3)cc2C1=O
  Ran FRET: 3.4
> C[C@H]1CN([C@@H](C)CO)C(=O)c2cc(NC(=O)Nc3ccc4c(c3)OCO4)ccc2O[C@@H]1CN(C)S(=O)(=O)c1cn(C)cn1
  Ran FRET: -2.6
> CNC[C@H]1Oc2ccc(NC(=O)CCC(F)(F)F)cc2CC(=O)N([C@H](C)CO)C[C@@H]1C
  Ran FRET: ?
> CNC[C@H]1Oc2ccc(NC(=O)NC(C)C)cc2CC(=O)N([C@@H](C)CO)C[C@H]1C
  Ran FRET: -5.1
> C[C@@H]1CN([C@H](C)CO)C(=O)c2cc(NS(=O)(=O)c3ccccc3)ccc2O[C@@H](C)CCCCO[C@@H]1CN(C)C(=O)CCC(F)(F)F
  Ran FRET: 1.3
> Cc1noc(C)c1NC(=O)N(C)C[C@H]1Oc2ccc(NC(=O)Cn3cnnn3)cc2CC(=O)N([C@@H](C)CO)C[C@H]1C
  Ran FRET: ?
> C[C@@H]1CN([C@@H](C)CO)C(=O)c2cc(NS(C)(=O)=O)ccc2O[C@H]1CN(C)C(=O)Nc1ccc(F)cc1
  Ran FRET: -0.3
> C[C@@H]1CCCCO[C@H](CN(C)C(=O)C2CCCCC2)[C@H](C)CN([C@H](C)CO)C(=O)c2cc(NC(=O)c3ccncc3)ccc2O1
  Ran FRET: -2.0
> C[C@@H]1CCCCO[C@@H](CN(C)C(=O)CCCN(C)C)[C@@H](C)CN([C@@H](C)CO)C(=O)c2cc(NS(=O)(=O)c3cccs3)ccc2O1
  Ran FRET: -0.6
> C[C@H](CO)N1C[C@H](C)[C@H](CN(C)S(=O)(=O)c2ccc(F)cc2)Oc2c(NS(=O)(=O)c3cn(C)cn3)cccc2C1=O
  Ran FRET: -0.4
> C[C@@H]1CCCCO[C@H](CN(C)C)[C@@H](C)CN([C@@H](C)CO)C(=O)c2cc(NC(=O)Nc3ccc(F)cc3)ccc2O1
  Ran FRET: -6.7
> C[C@@H]1CN([C@H](C)CO)C(=O)Cc2cc(NC(=O)Nc3ccc4c(c3)OCO4)ccc2O[C@H]1CN(C)CC1CC1
  Ran FRET: ?
> COc1ccc(NC(=O)N(C)C[C@@H]2Oc3ccc(NS(=O)(=O)c4ccccc4)cc3C(=O)N([C@@H](C)CO)C[C@@H]2C)cc1
  Ran FRET: 4.5
> Cc1noc(C)c1NC(=O)Nc1ccc2c(c1)CC(=O)N([C@H](C)CO)C[C@H](C)[C@@H](CN(C)S(=O)(=O)c1cccs1)O2
  Ran FRET: -1.3
> COc1ccc(CN(C)C[C@H]2Oc3ccc(NC(=O)Nc4cccc5ccccc45)cc3CC(=O)N([C@H](C)CO)C[C@H]2C)cc1
  Ran FRET: ?
> Cc1noc(C)c1S(=O)(=O)Nc1ccc2c(c1)C(=O)N([C@@H](C)CO)C[C@H](C)[C@H](CN(C)C(=O)Nc1ccccc1)O2
  Ran FRET: ?
> COc1ccc(S(=O)(=O)Nc2cccc3c2O[C@H](CN(C)Cc2ccc4c(c2)OCO4)[C@H](C)CN([C@H](C)CO)C3=O)cc1
  Ran FRET: -7.3
> C[C@@H]1CN([C@@H](C)CO)C(=O)Cc2cc(N(C)C)ccc2O[C@H]1CN(C)S(=O)(=O)c1cn(C)cn1
  Ran FRET: 6.6
> C[C@@H]1CN([C@H](C)CO)C(=O)c2cccc(NC(=O)C3CCOCC3)c2O[C@H]1CN(C)C(=O)Nc1ccc2c(c1)OCO2
  Ran FRET: -2.3
> Cc1noc(C)c1NC(=O)Nc1cccc2c1O[C@@H](CN(C)C)[C@@H](C)CN([C@H](C)CO)C2=O
  Ran FRET: 1.6
> C[C@H](CO)N1C[C@H](C)[C@H](CN(C)C(=O)Nc2ccccc2)Oc2ccc(NC(=O)NC3CCCCC3)cc2C1=O
  Ran FRET: -0.4
> CNC[C@@H]1Oc2c(NC(=O)Nc3c(C)noc3C)cccc2C(=O)N([C@@H](C)CO)C[C@H]1C
  Ran FRET: -0.6
> Cc1cc(C(=O)Nc2cccc3c2O[C@H](CN(C)S(=O)(=O)c2cccs2)[C@@H](C)CN([C@H](C)CO)C3=O)n(C)n1
  Ran FRET: -1.2
> C[C@H](CO)N1C[C@H](C)[C@@H](CN(C)C(=O)NC2CCCCC2)Oc2ccc(NC(=O)Cn3cnnn3)cc2CC1=O
  Ran FRET: 3.3
> Cc1noc(C)c1NC(=O)N(C)C[C@@H]1Oc2ccc(NC(=O)Cc3cn(C)c4ccccc34)cc2CC(=O)N([C@H](C)CO)C[C@@H]1C
  Ran FRET: -1.0

> C[C@@H]1CN([C@@H](C)CO)C(=O)c2cc(NS(=O)(=O)c3cn(C)cn3)ccc2O[C@@H]1CN(C)C
  Ran FRET: -3.2
> Cc1ccc(S(=O)(=O)Nc2ccc3c(c2)CC(=O)N([C@H](C)CO)C[C@@H](C)[C@@H](CN(C)C(=O)Nc2c(C)noc2C)O3)cc1
  Ran FRET: 1.2
> Cc1noc(C)c1NC(=O)Nc1ccc2c(c1)C(=O)N([C@@H](C)CO)C[C@@H](C)[C@H](CN(C)C)O2
  Ran FRET: -1.6
> C[C@@H]1CCCCO[C@@H](CN(C)C(=O)C2CCCCC2)[C@@H](C)CN([C@@H](C)CO)C(=O)c2cc(NS(=O)(=O)c3cn(C)cn3)ccc2O1
  Ran FRET: 4.6
> C[C@@H]1CN([C@@H](C)CO)C(=O)c2cc(NC(=O)Cn3cnnn3)ccc2O[C@H]1CN(C)S(=O)(=O)c1cccs1
  Ran FRET: 0.9
> COc1ccc(S(=O)(=O)Nc2ccc3c(c2)CC(=O)N([C@H](C)CO)C[C@@H](C)[C@H](CN(C)Cc2ccc(C(F)(F)F)cc2)O3)cc1
  Ran FRET: -1.5
> C[C@@H]1CN([C@@H](C)CO)C(=O)c2cccc(N(C)C)c2O[C@H]1CN(C)C(=O)Nc1ccc(C(F)(F)F)cc1
  Ran FRET: 0.3
> C[C@@H]1CN([C@H](C)CO)C(=O)Cc2cc(NS(=O)(=O)c3ccc(Cl)cc3)ccc2O[C@@H]1CN(C)C(=O)Nc1ccc(F)cc1
  Ran FRET: -2.3
> C[C@H](CO)N1C[C@H](C)[C@@H](CN(C)C(=O)Nc2cccc3ccccc23)Oc2ccc(NC(=O)NC3CCCCC3)cc2C1=O
  Ran FRET: 4.8
> CNC[C@@H]1Oc2ccc(NC(=O)Cc3ccccc3)cc2C(=O)N([C@@H](C)CO)C[C@H]1C
  Ran FRET: 6.5
> C[C@H](CO)N1C[C@H](C)[C@H](CN(C)C)Oc2c(NS(=O)(=O)c3ccccc3)cccc2C1=O
  Ran FRET: 1.4
> CNC[C@@H]1Oc2c(NC(=O)c3cnccn3)cccc2C(=O)N([C@H](C)CO)C[C@@H]1C
  Ran FRET: 3.8
> C[C@H](CO)N1C[C@H](C)[C@@H](CN(C)Cc2ccccc2)OCCCC[C@H](C)Oc2ccc(NC(=O)CCC(F)(F)F)cc2C1=O
  Ran FRET: -0.3
> Cc1noc(C)c1S(=O)(=O)Nc1ccc2c(c1)C(=O)N([C@H](C)CO)C[C@H](C)[C@H](CN(C)C)O2
  Ran FRET: ?
> C[C@H](CO)N1C[C@H](C)[C@@H](CN(C)C(=O)Nc2cccc3ccccc23)Oc2ccc(NS(=O)(=O)c3ccccc3)cc2C1=O
  Ran FRET: -0.5
> C[C@@H]1CN([C@H](C)CO)C(=O)Cc2cc(NC(=O)C3CC3)ccc2O[C@H]1CN(C)C(=O)Nc1ccccc1
  Ran FRET: 3.5
> C[C@H](CO)N1C[C@H](C)[C@@H](CN(C)CC2CC2)Oc2ccc(NC(=O)Cc3ccccc3)cc2C1=O
  Ran FRET: -1.2
> COc1ccc(CN(C)C[C@H]2Oc3ccc(NC(=O)Cc4ccccc4)cc3C(=O)N([C@H](C)CO)C[C@H]2C)cc1
  Ran FRET: 4.8
> C[C@H]1CN([C@@H](C)CO)C(=O)c2cccc(NC(=O)c3ccncc3)c2O[C@H]1CN(C)S(=O)(=O)c1cn(C)cn1
  Ran FRET: -1.7
> C[C@@H]1CN([C@H](C)CO)C(=O)Cc2cc(NC(=O)Cc3cn(C)c4ccccc34)ccc2O[C@H]1CN(C)S(=O)(=O)c1cn(C)cn1
  Ran FRET: 3.9
> Cc1noc(C)c1S(=O)(=O)N(C)C[C@@H]1OCCCC[C@H](C)Oc2ccc(NS(C)(=O)=O)cc2C(=O)N([C@H](C)CO)C[C@H]1C
  Ran FRET: -2.1
> COc1ccc(S(=O)(=O)Nc2cccc3c2O[C@@H](CN(C)Cc2ccc(C(F)(F)F)cc2)[C@@H](C)CN([C@H](C)CO)C3=O)cc1
  Ran FRET: -0.7
> C[C@H](CO)N1C[C@H](C)[C@@H](CN(C)C(=O)Nc2ccc3c(c2)OCO3)OCc2cn(nn2)CCCC1=O
  Ran FRET: 1.1
> C[C@@H]1CN([C@H](C)CO)C(=O)c2cccc(NS(=O)(=O)c3cccs3)c2O[C@H]1CN(C)C(=O)NC1CCCCC1
  Ran FRET: -3.9
> COc1ccc(S(=O)(=O)Nc2cccc3c2O[C@@H](CN(C)S(=O)(=O)c2ccc(F)cc2)[C@@H](C)CN([C@H](C)CO)C3=O)cc1
  Ran FRET: 3.5

> C[C@@H]1CN([C@@H](C)CO)C(=O)Cc2cc(NC(=O)C3CC3)ccc2O[C@H]1CN(C)C(=O)Nc1ccccc1
  Ran FRET: 6.7
> C[C@@H]1CCCCO[C@@H](CN(C)Cc2ccccc2)[C@@H](C)CN([C@H](C)CO)C(=O)c2cc(NC(=O)Nc3ccc4c(c3)OCO4)ccc2O1
  Ran FRET: -0.3
> C[C@@H]1CN([C@@H](C)CO)C(=O)c2cc(NC(=O)Nc3ccccc3)ccc2O[C@@H]1CN(C)C(=O)Nc1ccc(C(F)(F)F)cc1
  Ran FRET: -4.8
> COc1ccc(S(=O)(=O)Nc2cccc3c2O[C@H](CN(C)CC2CC2)[C@@H](C)CN([C@@H](C)CO)C3=O)cc1
  Ran FRET: 0.0
> Cc1noc(C)c1S(=O)(=O)N(C)C[C@H]1Oc2ccc(NC(=O)Nc3ccc(F)cc3)cc2CC(=O)N([C@H](C)CO)C[C@H]1C
  Ran FRET: 4.1
> CC(C)NC(=O)N(C)C[C@H]1Oc2ccc(NC(=O)C3CC3)cc2CC(=O)N([C@H](C)CO)C[C@H]1C
  Ran FRET: 0.1
> CCCC(O)C#Cc1cnc2c(c1)C(=O)N([C@H](C)CO)C[C@H](C)[C@H](CN(C)Cc1ccncc1)O2 (stereo not given in full)
  Ran FRET: -2.9
> Cc1noc(C)c1NC(=O)Nc1cccc2c1O[C@@H](CN(C)S(=O)(=O)c1cn(C)cn1)[C@H](C)CN([C@@H](C)CO)C2=O
  Ran FRET: 4.9
> C[C@@H]1CN([C@@H](C)CO)C(=O)c2cc(NS(=O)(=O)c3cccs3)ccc2O[C@@H](C)CCCCO[C@H]1CN(C)C
  Ran FRET: 0.6
> CNC[C@@H]1OCCCC[C@H](C)Oc2ccc(NC(=O)Nc3ccccc3)cc2C(=O)N([C@@H](C)CO)C[C@@H]1C
  Ran FRET: -2.7
> C[C@@H]1CCCCO[C@@H](CN(C)C(=O)c2ccccc2)[C@H](C)CN([C@@H](C)CO)C(=O)c2cc(NC(=O)Nc3ccc(F)cc3)ccc2O1
  Ran FRET: 2.0
> C[C@H]1CN([C@@H](C)CO)C(=O)c2cccc(NC(=O)c3cnccn3)c2O[C@H]1CN(C)CC1CC1
  Ran FRET: 1.7
> C[C@@H]1CN([C@@H](C)CO)C(=O)Cc2cc(NC(=O)Nc3ccc(C(F)(F)F)cc3)ccc2O[C@H]1CN(C)C(=O)NC1CCCCC1
  Ran FRET: -0.3
> CC(C)NC(=O)Nc1cccc2c1O[C@@H](CN(C)Cc1ccc(C(F)(F)F)cc1)[C@@H](C)CN([C@H](C)CO)C2=O
  Ran FRET: -3.9
> C[C@@H]1CN([C@H](C)CO)C(=O)Cc2cc(NC(=O)CCN3CCOCC3)ccc2O[C@@H]1CN(C)Cc1ccc(-c2ccccc2)cc1
  Ran FRET: -5.0
> C[C@H]1CN([C@@H](C)CO)C(=O)c2cccc(NC(=O)C3CCOCC3)c2O[C@H]1CN(C)Cc1ccc(Cl)c(Cl)c1
  Ran FRET: ?
> Cc1noc(C)c1NC(=O)N(C)C[C@H]1Oc2ccc(NS(=O)(=O)c3cn(C)cn3)cc2CC(=O)N([C@H](C)CO)C[C@@H]1C
  Ran FRET: 1.3
> C[C@@H]1CN([C@@H](C)CO)C(=O)c2cccc(NC(=O)Nc3cccc4ccccc34)c2O[C@H]1CN(C)C(=O)Nc1cccc2ccccc12
  Ran FRET: ?
> C[C@H]1CN([C@@H](C)CO)C(=O)c2cccc(NC(=O)C3CCOCC3)c2O[C@@H]1CN(C)Cc1ccc(Oc2ccccc2)cc1
  Ran FRET: -4.7
> C[C@H]1CN([C@@H](C)CO)C(=O)c2cccc(NC(=O)Nc3ccc(C(F)(F)F)cc3)c2O[C@@H]1CN(C)C(=O)Nc1ccc(F)cc1
  Ran FRET: 2.7
> Cc1noc(C)c1NC(=O)Nc1cccc2c1O[C@@H](CN(C)CC1CC1)[C@H](C)CN([C@H](C)CO)C2=O
  Ran FRET: -2.7
> C[C@@H]1CN([C@@H](C)CO)C(=O)Cc2cc(NC(=O)Nc3ccccc3)ccc2O[C@@H]1CN(C)S(=O)(=O)c1cn(C)cn1
  Ran FRET: -1.3
> C[C@H](CO)N1C[C@H](C)[C@H](CN(C)S(=O)(=O)c2cccs2)OCCCC[C@H](C)Oc2ccc(NC(=O)c3ccncc3)cc2C1=O
  Ran FRET: 5.4
> CC(C)NC(=O)N(C)C[C@H]1Oc2ccc(NS(=O)(=O)c3cccs3)cc2CC(=O)N([C@H](C)CO)C[C@@H]1C
  Ran FRET: -4.9
> C[C@@H]1CN([C@H](C)CO)C(=O)c2cc(NC(=O)Cn3cnnn3)ccc2O[C@H]1CN(C)C(=O)Nc1ccc(F)cc1
  Ran FRET: 6.2

Among those listed so far, these have a Cl atom:
> C[C@@H]1CN([C@H](C)CO)C(=O)Cc2cc(NS(=O)(=O)c3ccc(Cl)cc3)ccc2O[C@@H]1CN(C)C(=O)Nc1ccc(F)cc1
  Ran FRET: -2.3
> C[C@H]1CN([C@@H](C)CO)C(=O)c2cccc(NC(=O)C3CCOCC3)c2O[C@H]1CN(C)Cc1ccc(Cl)c(Cl)c1
  Ran FRET: ?
